KCNQ2 enhance: KCNQ2 (rat) channel potentiation | actives 0.54% (n = 310,000) | O88943 | B-score at 10 µM | CHO-K1 KCNQ2, FluxOR thallium flux fluorescence; hits give high values;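 active means fluorescence ratio B-score at least 3 SD of library B-scores, with initial fluorescence B-score within 3 SD, cut at about 5.3 in these data; same plate scores as AID 2156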;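 further: B-score of peak minus minimum over baseline fluorescence ratio after K+ and Tl+ stimulus; positive B-score means potentiation of KCNQ2 with more thallium influx and brighter signal; only the inactives scoring about 0 or higher are listed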
Target sequence (O88943 whole entry, looked up): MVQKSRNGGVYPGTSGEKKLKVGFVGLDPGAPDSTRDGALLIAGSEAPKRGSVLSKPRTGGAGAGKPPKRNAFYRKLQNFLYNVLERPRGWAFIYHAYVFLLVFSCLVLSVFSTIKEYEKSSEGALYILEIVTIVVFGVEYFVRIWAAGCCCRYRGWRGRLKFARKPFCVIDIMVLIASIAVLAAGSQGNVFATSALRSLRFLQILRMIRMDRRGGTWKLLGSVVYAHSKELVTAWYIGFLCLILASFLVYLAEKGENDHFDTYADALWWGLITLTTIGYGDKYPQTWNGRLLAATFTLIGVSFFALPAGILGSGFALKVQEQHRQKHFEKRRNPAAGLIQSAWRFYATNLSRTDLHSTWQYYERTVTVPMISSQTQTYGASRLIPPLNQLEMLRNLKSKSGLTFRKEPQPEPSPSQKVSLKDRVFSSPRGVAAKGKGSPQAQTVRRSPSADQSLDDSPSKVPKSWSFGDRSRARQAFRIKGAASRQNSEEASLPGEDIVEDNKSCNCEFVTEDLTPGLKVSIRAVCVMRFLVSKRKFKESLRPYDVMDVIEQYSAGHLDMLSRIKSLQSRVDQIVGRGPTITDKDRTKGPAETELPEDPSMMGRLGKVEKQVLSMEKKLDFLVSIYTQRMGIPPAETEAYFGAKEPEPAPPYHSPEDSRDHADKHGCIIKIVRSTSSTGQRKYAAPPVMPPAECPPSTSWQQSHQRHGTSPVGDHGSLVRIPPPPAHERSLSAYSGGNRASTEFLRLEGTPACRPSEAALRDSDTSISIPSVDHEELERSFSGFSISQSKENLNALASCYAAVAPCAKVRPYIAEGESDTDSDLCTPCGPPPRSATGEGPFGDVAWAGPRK
KCNQ2 enhance baseline: further read-out of KCNQ2 enhance, marked with its call; B-score; compound at 10 µM; measured here: initial fluorescence intensity artifact check;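 brightness before thallium and not channel activity; 0 = typical well and far values either way flag optical interference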
Active calls of the source: *. A portion of the library; rates above refer to the full screens.

SMILES | KCNQ2 enhance | KCNQ2 enhance baseline
Cc1cc(NC(=O)c2cc(C(C)C)on2)no1 | 0.51 | -2.1
CCOc1ccc(OCCC(=O)N2CCN(S(=O)(=O)c3ccc(OCC)cc3)CC2)cc1 | 0.34 | 1.8
CCN(CC)CCN(C(=O)c1ccc(Br)s1)c1nc2cc3c(cc2s1)OCO3 | 0.71 | -1.4
COC(=O)c1ccc(COc2ccc(/C=N/O)cc2)o1 | 0.09 | 1.2
COc1cc(O)c(C(CCN2CCCC(C)C2)c2cc(OC)c(OC)c(OC)c2)c(OC)c1 (stereo not given) | 0.76 | 0.98
Cc1ccc(C23CC4CC(CC(CC(=O)NC(C)(C)CO)(C4)C2)C3)cc1 | 1.8 | -0.54
O=C(Cc1ccc2c(c1)OCCO2)c1c(O)cc(O)cc1O | 0.07 | 0.38
COCCn1c(=NC(C)=O)sc2cc([N+](=O)[O-])ccc21 | 0.95 | 0.85
CCn1cc(CN2CCCC(C(=O)Nc3ccc(-c4nc5ccccc5[nH]4)cc3)C2)c(C)n1 (stereo not given) | 0.58 | -1.8
Cc1ccc2c(c1)C1CN(C)CCC1N2C(=O)Nc1ccc(Cl)cc1 (stereo not given) | 0.26 | -0.21
COc1ccc(S(=O)(=O)Cc2ccc(C(=O)NC3CC3)o2)cc1 | 0.18 | 4.3
COc1cc(/C=N/NC(=O)Cc2ccc(Br)cc2)cc(OC)c1O | 2.1 | -0.38
CCOC(=O)N1CCC(NC(=O)CN2C(=O)CSc3ncccc32)CC1 | 0.68 | -0.88
O=S(=O)(c1ccc2ccccc2c1)N(CC1CO1)c1ccccc1 (stereo not given) | 1.4 | -0.01
CCCc1cc(C(N)=O)c(NC(=O)c2ccco2)s1 | 1.2 | -1.3
O=C1CC(N2CCC(O)(c3ccc(Cl)cc3)CC2)C(=O)N1Cc1ccc(N2CCCC2=O)cc1 (stereo not given) | 0.33 | -0.88
Cc1sc(-n2cccc2)c(C(=O)O)c1C | 0.14 | 0.69
CC(C)CCC1(C)NC(=O)N(CC(=O)c2ccc[nH]2)C1=O (stereo not given) | 1.4 | 0.03
CC(C)(C)C(=O)Nc1cc(C(F)(F)F)ccc1-n1ccnc1 | 0.06 | -0.63
CCCC(=O)NNC(=O)c1ccoc1C | 0.6 | -1.3
CCOc1ccc2oc(=O)cc(C)c2c1 | 1.5 | -0.74
CC(C)C(=O)Nc1sc2c(c1C#N)CCCCC2 | 0.84 | -0.01
Cc1cc(C(F)(F)F)c2c(C)nn(CCc3nn[nH]n3)c2n1 | 0.15 | 0.18
O=C(Nc1cccc(F)c1)C1CCN(S(=O)(=O)c2cccc3nonc23)CC1 | 0.38 | 1
CCOC(=O)C(C)OC(=O)C1=C(C)NC(=O)NC1c1ccc2c(c1)OCO2 (stereo not given) | 0.09 | 3.6

Further entries follow.
SMILES | KCNQ2 enhance | KCNQ2 enhance baseline
CC(C)(C)c1cc(C(=O)NCc2ccco2)ccn1 | 1.4 | -2.6
CCCOc1ccc(Br)cc1/C=N/O | 2.2 | -1.1
COc1cc(OC)c(C(=O)NC23CC4CC(CC(C4)C2)C3)cc1OC | 0.05 | 0.73
CS(=O)(=O)N(CCC(=O)O)Cc1ccccc1 | 3 | 0.2
CCN(CC)c1ccc(NC(=O)C2CCCC2)cc1 | 3.5 | 0.38
Cc1cc(C)c2c(-n3cccc3)c(C(=O)O)sc2n1 | 0.64 | 0.86
Cc1ccc2c(c1)NC(=O)C(CC(=O)NCCCN1CCCC1)O2 (stereo not given) | 0.6 | 0.59
COCCCn1c2nc3ccccc3nc2c2c(=O)n(CC3CCCO3)cnc21 (stereo not given) | 0.02 | -1
CCOc1cc(N2CCOCC2)c(OCC)cc1NC(=O)c1ccco1 | 1.5 | 0.36
Cc1ccccc1C1(CCN2CCCCC2)CCOC(C)(C)C1 (stereo not given) | 0.2 | -0.44
NC(=O)c1ccccc1N/C=C/C(=O)c1ccc(Cl)cc1Cl | 0.58 | -0.86
COc1ccc(N2CC(C(=O)Nc3nc4ccc(F)cc4s3)CC2=O)c(OC)c1 (stereo not given) | 0.09 | -0.61
Cc1ccc2nc(-c3cccc(NS(C)(=O)=O)c3)cc(-c3ccccc3)c2c1 | 0.29 | 0.7
Cc1ccc(NC(=O)C2CCCN(S(=O)(=O)c3cccc4nonc34)C2)cc1 (stereo not given) | 0.83 | 1.6
CCOC(=O)C1=C(CN2CC(C)CC(C)C2)NC(=O)NC1c1ccc2c(c1)OCO2 (stereo not given) | 0.78 | 1.5
Cc1oc2nc(SCC(=O)N3CCCCC3)nc(N)c2c1C | 1.1 | -0.97
Cc1cccc(C)c1NC(=O)CCCCCC1NC(=O)NC1C (stereo not given) | 0.9 | 0.04
CN(C)CCNC(=O)c1ccc2c(c1)NC(=O)c1ccccc1S2 | 0.59 | 0.03
COc1cccc(N(CC(=O)NC2CCCCC2)C(=O)CCC(=O)Nc2nccs2)c1 | 0.71 | -1.3
CC1(C)Cc2c(c(N3CCOCC3)nc3sc(C(=O)Nc4ccccc4)c(N)c23)CO1 | 0.37 | 1.7
O=C1CC(C(=O)Nc2ccc(Cl)cc2)n2ncnc2N1 (stereo not given) | 0.51 | -0.61
CN1CCN(C(=O)c2ccc(-n3cccn3)nc2)CC1 | 2.3 | 1.1
Cc1nccc2[nH]c(=O)c(C(=O)NC(C)CCc3ccccc3)cc12 (stereo not given) | 0.32 | 1.9
CC(CN1CCCCC1)OC(=O)COc1ccc(Br)cc1 (stereo not given) | 0.03 | -0.69
Cc1ccccc1NC(=O)Cn1nnc2ccccc21 | 2.2 | -1.2

In the list so far, two have a tert-butyl group.
SMILES | KCNQ2 enhance | KCNQ2 enhance baseline
CC(C)(C)C(=O)Nc1cc(C(F)(F)F)ccc1-n1ccnc1 | 0.06 | -0.63
CC(C)(C)c1cc(C(=O)NCc2ccco2)ccn1 | 1.4 | -2.6

New compounds follow
SMILES | KCNQ2 enhance | KCNQ2 enhance baseline
C=CCNC(=O)C1CC(=O)N(c2ccc(OCC(=O)N3CCCC3)cc2)C1 (stereo not given) | 0.73 | 2.6
CCOc1ccc(-n2c(C)cc(/C=C3/C(=N)N4C(=NC3=O)SN=C4S(C)(=O)=O)c2C)cc1 | 4.6 | 0.07
COc1ccc(Cl)cc1S(=O)(=O)N1CCN=C1Cc1ccccc1 | 0.66 | 0.05
CSc1nc(NS(=O)(=O)c2cc(Br)ccc2Br)cc(=O)[nH]1 | 0.42 | -0.02
Cc1ccc(C2=NNC(=O)C(c3c[nH]c4ccccc34)C2)cc1 (stereo not given) | 0.4 | 1.3
COc1ccc(N2C(=O)CC(S/C(N)=N/N=C/c3ccnc4ccccc34)C2=O)cc1 (stereo not given) | 0.13 | 0.47
O=C(O)C(Cc1c[nH]c2ccccc12)N1CCS(=O)(=O)CC1 (stereo not given) | 0.2 | 0.33
O=C(Cn1ncc2c3ccccc3n(Cc3ccccc3F)c2c1=O)NCC1CCCO1 (stereo not given) | 6* | -0.66*
CC1CCCC(NC(=O)COC(=O)c2sc3ccccc3c2Cl)C1C (stereo not given) | 0.86 | 1.2
CCCn1c(SCC(=O)Nc2cccc(S(=O)(=O)N3CCCC3)c2)n[nH]c1=O | 0.2 | -1
C(/CCc1ccccc1)=N\n1cnnc1 | 0.31 | -0.5
CCn1c(SCC(=O)N2CCCC(C)C2)nc2c1c(=O)n(C)c(=O)n2C (stereo not given) | 1 | 0.36
Fc1ccc(Nc2nc(N3CCOCC3)nc(N3CCOCC3)n2)cc1Cl | 1.7 | 0.95
Cc1cc(C)nc(-n2nc(C)c3c(C(F)(F)F)cc(=O)[nH]c32)n1 | 0.87 | -0.19
COc1ccc(CCN2CC3=C(C2=O)C(c2ccccc2)NC(=O)N3C)cc1OC (stereo not given) | 0.78 | 1.6
CCOC(=O)Oc1ccc2oc(=O)cc(C)c2c1 | 0.87 | -1.7
CC1CCCN(C(=O)c2cc(F)c(F)cc2Cl)C1 (stereo not given) | 0.39 | 0.21
O=C(O)c1ccccc1P(=O)(c1ccccc1)c1ccccc1 | 0.98 | 1.6
Cc1ccc(OC(=O)c2ccc(C)c(C)c2)cn1 | 0.59 | -2
CN(C)S(=O)(=O)c1ccc(C(=O)Nc2ccc3c(c2)CCC3)cc1 | 1.7 | 0.06
O=C(O)CCCCCNc1nc2ncn(Cc3ccccc3)c2c(=O)[nH]1 | 1.5 | 0.04
S=C(NCCCN1CCOCC1)NC1CCCC1 | 1.1 | 1.4
CCCCOc1ccc(-c2nnn(CC(=O)Nc3ncc(CC(=O)OCC)s3)n2)cc1 | 0.58 | 0.02
O=CNCCc1nc2ccccc2n1CCc1ccccc1 | 0.03 | -0.07
Cc1cc(C(=O)NNC(=O)c2cccc(Cl)c2)no1 | 1.5 | 2.6

Later entries.
SMILES | KCNQ2 enhance | KCNQ2 enhance baseline
CCCCNC(=O)COC(=O)c1cc(S(=O)(=O)N2CCCCCC2)ccc1OC | 1.5 | 0.14
Cc1ccc(S(=O)(=O)c2c(N)n(NC(=O)c3ccccc3C)c3nc4ccccc4nc23)cc1 | 5.3 | 2.4
COc1ccc(Oc2nccc(OC)c2C#N)cc1 | 1.4 | -0.04
CCOc1cc(/C=C2\SC(=Nc3ccccc3)N(c3ccccc3)C2=O)ccc1OCC(=O)O | 0.01 | -0.02
CCOC(=O)c1ccc(NC(=O)CC2S/C(=N/N=C/c3c[nH]c4ccccc34)NC2=O)cc1 (stereo not given) | 1.1 | 0.04
Cn1c(SCCS(=O)(=O)c2ccc(Cl)cc2)nnc1-c1ccccc1 | 1.4 | -0.19
CC(C)(C)NC(=O)c1cccc(NC(=O)CSc2ccc(Cl)cc2)c1 | 0.1 | -0.37
CC1=C(C(=O)Nc2ccccc2)C(c2ccncc2)n2nnnc2N1 (stereo not given) | 0.66 | -1
NC(=O)COc1ccc2oc(-c3ccccc3)cc(=O)c2c1 | 1.1 | 0.18
COC(=O)/C(=N/Nc1ccccc1OC)N1CCCc2ccccc21 | 0.73 | -0.41
Cc1cc(C)n2cc(CSc3ncn[nH]3)nc2n1 | 1 | -1.6
Cc1ccn2c(=O)nc(SCC(=O)NCc3ccc4c(c3)OCO4)nc2c1 | 0.99 | -0.59
CC1(C)Cc2nc(-c3ccccc3)nc(SCC(O)CO)c2CO1 (stereo not given) | 0.17 | -0.42
CC1=NN(c2ccccc2)C(=O)/C1=C/c1ccc(-c2ccc(C)c(C(=O)O)c2)o1 | 6.8* | 0.92*
Cc1ccc(N/C=C(\[N+](=O)[O-])S(=O)(=O)c2ccccc2)cc1 | 0.32 | 0.77
COc1ccc(S(=O)(=O)N2CCN(S(=O)(=O)c3ccc4c(c3)OCCO4)CC2)cc1C | 0.14 | 0.59
O=C(/C=C/c1ccco1)OCn1nnc2ccccc2c1=O | 0.48 | -0.48
O=C1Nc2cc(S(=O)(=O)N3CCCC3)ccc2N2CCCC12 (stereo not given) | 0.13 | 0.1
COc1ccc(NC(=O)C2CC(c3ccc(OC)c(OC)c3)=NO2)cc1OC (stereo not given) | 0.33 | -1
Cc1cc(N2CCN(c3nc4ccccc4s3)CC2)n2ncnc2n1 | 3.8 | 0.63
Cc1nnc(SCC(=O)N(Cc2ccccc2)C(C)C)n1-c1ccccc1 | 0.11 | 2.5
C/C=C/C(=O)N1CC2(CC(c3cccc(NC(=O)/C(C)=C/C)c3)=NO2)C[C@H]1C(N)=O (stereo not given in full) | 0.28 | -0.29
C#CCOCCOCCOCCNc1nc(N2CCN(C(=O)Cn3cc(CCCN=C(N)N)nn3)CC2)nc(N2CCN(C(=O)[C@H](C(C)C)n3cc(CCO)nn3)CC2)n1 | 0.08 | 0.33
O=C(NC12CCC(O)C(SC1)/C2=N/O)c1ccccc1 (stereo not given) | 0.67 | -0.19
O=C(COc1ccc(OCc2ccccc2)cc1)NN=C1CCCC1 | 0.28 | 0.59

Entries listed so far that have an NH in an aromatic ring:
SMILES | KCNQ2 enhance | KCNQ2 enhance baseline
CCn1cc(CN2CCCC(C(=O)Nc3ccc(-c4nc5ccccc5[nH]4)cc3)C2)c(C)n1 (stereo not given) | 0.58 | -1.8
CC(C)CCC1(C)NC(=O)N(CC(=O)c2ccc[nH]2)C1=O (stereo not given) | 1.4 | 0.03
Cc1cc(C(F)(F)F)c2c(C)nn(CCc3nn[nH]n3)c2n1 | 0.15 | 0.18
Cc1nccc2[nH]c(=O)c(C(=O)NC(C)CCc3ccccc3)cc12 (stereo not given) | 0.32 | 1.9
CSc1nc(NS(=O)(=O)c2cc(Br)ccc2Br)cc(=O)[nH]1 | 0.42 | -0.02
Cc1ccc(C2=NNC(=O)C(c3c[nH]c4ccccc34)C2)cc1 (stereo not given) | 0.4 | 1.3
O=C(O)C(Cc1c[nH]c2ccccc12)N1CCS(=O)(=O)CC1 (stereo not given) | 0.2 | 0.33
CCCn1c(SCC(=O)Nc2cccc(S(=O)(=O)N3CCCC3)c2)n[nH]c1=O | 0.2 | -1
Cc1cc(C)nc(-n2nc(C)c3c(C(F)(F)F)cc(=O)[nH]c32)n1 | 0.87 | -0.19
O=C(O)CCCCCNc1nc2ncn(Cc3ccccc3)c2c(=O)[nH]1 | 1.5 | 0.04
CCOC(=O)c1ccc(NC(=O)CC2S/C(=N/N=C/c3c[nH]c4ccccc34)NC2=O)cc1 (stereo not given) | 1.1 | 0.04
Cc1cc(C)n2cc(CSc3ncn[nH]3)nc2n1 | 1 | -1.6

(list continues)
SMILES | KCNQ2 enhance | KCNQ2 enhance baseline
O=C1C2C3C=CC(CC3)C2C(=O)N1c1ccc(Br)cc1[N+](=O)[O-] (stereo not given) | 0.42 | -0.19
NC(=O)C1=C[C@@H](c2csc3ccccc23)C[C@@H](OCCCCO)O1 | 0.49 | 0.41
CN(C)CCn1c(=N)n(CC(O)c2ccc(Cl)c(Cl)c2)c2ccccc21 (stereo not given) | 1.2 | 0.56
Cc1nn(C)cc1S(=O)(=O)Nc1ncccn1 | 0.26 | 0.75
COc1ccc(-c2c(-c3ccccc3OC)sc3ccccc23)cc1OC | 0.34 | 0.07
Cc1ccc(C(=O)Nc2ccccn2)cc1S(=O)(=O)N1CCOCC1 | 0.51 | -0.48
COc1ccc2nc(SCC(=O)N(C)CC(=O)Nc3ccc(F)cc3)[nH]c2c1 | 0.71 | -0.33

Screening results deposited in PubChem by Johns Hopkins Ion Channel Center.
